Compound activity (PubChem BioAssay)
Mtb hypoxia rep – PubChem AID 1159583; M. tuberculosis hypoxia-regulated fluorescent reporter, fluorescence; fluorescence inhibition, % (test concentration not listed); 300,000 tested, 0.1% active;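 active means 35 to 45% if threefold the growth effect, above 45% if 1.5-fold the growth effect; inactive means the rest, general growth blockers included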;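 further: wells of about 50 µL received 100 nL stock; 0% = vehicle wells and 100% = reference inhibitor wells; whole bacteria with a GFP reporter of the hypoxia response; strong numbers were not always called active; many hits fall short of the cut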
Autofluor counter – flagged as autofluorescent in microsphere protease counterscreen; compound autofluorescence counterscreen, microsphere flow cytometry; hits give high values; fluorescence intensity (no concentration beside the values); 360,000 tested, 3.1% active;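 active means at least 3 SD above the mean of all compounds, about 16000 in these data; inconclusive means too few beads counted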;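 further: 100 nL of 1 mM stock went into each well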
RN4220 kill – growth inhibition of S. aureus RN4220, primary screen, OD600; 16 h; inhibition, % (no concentration beside the values); 330,000 tested, 0.33% active; AID 1259311, 2017;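 active means z-score of -3 or lower and OD600 up to 0.18 on both plates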;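 further: plate controls were untreated cells for no effect and reference antibiotic for full effect; stock transfer was 100 nL into about 80 µL; one replicate is shown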
Sa ugtP lethal – growth inhibition of ugtP-null S. aureus, primary screen, RN4220 ugtP deletion, OD600. 16 h; some inactives read as strong as hits. growth inhibition, % (no concentration beside the values). 330,000 tested, 0.54% active. AID 1259309, 2017;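 active means z-score under -3 and OD600 up to 0.15 on both plates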;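 further: plate controls were untreated wells for no effect and antibiotic for full effect; wells of about 80 µL received 100 nL stock; the first replicate is given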
PrP 5UTR inh – inhibition of PrP 5' UTR reporter expression | inhibition, % (test concentration not listed) | AID 488862, 2010 | 340,000 tested, 0.35% active | cell-based PrP 5' UTR mRNA reporter, plate reader;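 active means every replicate at 50% or more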;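 further: 0 = median of the neutral control wells; tested in H4 reporter cells; numbers are from one replicate; inactives centre near -14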
BJeLR lethal – MLPCN primary cell-based screen for lethality selective to Ras in HRASV12 cells | BJeLR (HRASV12) viability, CellTiter-Glo ATP luminescence, 48 h; reference of the scale not given here | inhibition, % (no concentration beside the values) | 300,000 tested, 0.17% active | AID 1554, 2009;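 active means replicate mean above 50%; inconclusive means above 50% but judged a plate artefact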;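 further: 50 nL library stock added to about 25 µL; numbers are from one replicate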
Mtb hypoxia rep growth – also measured in Mtb hypoxia rep; calls as there; growth inhibition, %; measured here: M. tuberculosis growth (absorbance);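 0% = vehicle and 100% = reference antibiotic; read after six days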
The depositor's hits bear a star; ? = inconclusive; · = not tested or not shown. Compounds as they come, and some 3.9% of all compounds hit somewhere here.

SMILES	Mtb hypoxia rep	Mtb hypoxia rep growth	Autofluor counter	RN4220 kill	Sa ugtP lethal	PrP 5UTR inh	BJeLR lethal
Cc1cc(C)n(Cc2ccc(C(=O)O)o2)n1	10	7	2365	2.5	-1	-32	2
CCc1ccc(/C=C2\Oc3cc(OS(C)(=O)=O)ccc3C2=O)cc1	13	9	2551	-0.8	-3	-12	-7
CCC(C(=O)OCn1nnc2ccccc2c1=O)c1ccccc1 (stereo not drawn)	16	14	6337	4.7	-6	-16	1
C=CCc1c(C)nc(SC(C)C)[nH]c1=O	8	8	4201	-2.5	0	-24	-9
CCCS(=O)(=O)c1c(S(=O)(=O)CCC)c2ccc(C(N)=O)cn2c1C(=O)c1ccccc1	-7	7	3647	3.4	0	-10	6
O=C(NCCCN1CCCCC1)C1CC(=O)N(CCc2ccccc2)C1 (stereo not drawn)	4	-4	5317	0.6	5	-18	3
Cc1ccc(S(=O)(=O)N(C)C)cc1NC(=O)COC(=O)CCNS(=O)(=O)c1ccccc1	2	10	·	2.5	4	-10	·
COc1ccc(CNS(=O)(=O)c2csc(C(N)=O)c2)cc1OC	13	0	4484	3.0	11	-12	8
Cc1ccc2c(c1)N(CCC(=O)NCc1ccco1)C(=O)CO2	-4	-5	22695*	5.9	8	-16	-1
O=C(CN1N=C(c2ccccc2)CCC1=O)NCCN1CCc2ccccc2C1	17	10	2105	8.3	11	-16	12

Some of these compounds in order of count of non-hydrogen atoms, low to high.
SMILES	Mtb hypoxia rep	Mtb hypoxia rep growth	Autofluor counter	RN4220 kill	Sa ugtP lethal	PrP 5UTR inh	BJeLR lethal
C=CCc1c(C)nc(SC(C)C)[nH]c1=O	8	8	4201	-2.5	0	-24	-9
Cc1cc(C)n(Cc2ccc(C(=O)O)o2)n1	10	7	2365	2.5	-1	-32	2
COc1ccc(CNS(=O)(=O)c2csc(C(N)=O)c2)cc1OC	13	0	4484	3.0	11	-12	8
CCc1ccc(/C=C2\Oc3cc(OS(C)(=O)=O)ccc3C2=O)cc1	13	9	2551	-0.8	-3	-12	-7
O=C(NCCCN1CCCCC1)C1CC(=O)N(CCc2ccccc2)C1 (stereo not drawn)	4	-4	5317	0.6	5	-18	3
O=C(CN1N=C(c2ccccc2)CCC1=O)NCCN1CCc2ccccc2C1	17	10	2105	8.3	11	-16	12
Cc1ccc(S(=O)(=O)N(C)C)cc1NC(=O)COC(=O)CCNS(=O)(=O)c1ccccc1	2	10	·	2.5	4	-10	·

New compounds follow:
SMILES	Mtb hypoxia rep	Mtb hypoxia rep growth	Autofluor counter	RN4220 kill	Sa ugtP lethal	PrP 5UTR inh	BJeLR lethal
O=C(CCc1nc(-c2ccccc2F)no1)NCCN1CCOCC1	·	·	2214	-0.6	0	-9	·
CN1CCN(CCC(=O)OC2CC3CCC(C2)N3C)CC1 (stereo not drawn)	·	·	4662	-0.9	0	-18	-2
CN1CCCCC1c1ccc(-c2cccnc2)nc1 (stereo not drawn)	·	·	4119	1.1	-7	-23	12
Oc1ccc(Nc2nc3ccccc3nc2Nc2ccc(O)cc2)cc1	9	6	4034	-5.2	-27	-30	-2
CC(=O)c1c(C)cc(C)c(CSc2nnc(-c3ccco3)o2)c1C	15	13	19958*	15	3	-27	-14
Cc1ccc(C2CC(=O)C(C=NCCN3CCN(C(=S)Nc4ccc(F)cc4)CC3)=C(O)C2)cc1 (stereo not drawn)	-6	10	4870	-1.5	-3	-22	-3
O=C(COC(=O)c1ccc(S(=O)(=O)N2CCOCC2)cc1)Nc1ccccc1F	-7	5	5724	-0.7	-4	-2	·
Cc1ccc(NC(=O)c2ccc(F)cc2)nc1	0	-4	2211	3.0	4	-65	6
CCC(C)C(C(=O)N1CCNCC1)n1cc(C(N)CO)nn1 (stereo not drawn)	3	-4	·	6.4	5	·	·
O=P(O)(Oc1ccccc1)OC(c1ccccc1)C(F)(F)C(F)(F)F (stereo not drawn)	4	5	3826	8.3	4	-14	-1
COCCNc1cc(C)nc2c3c(C)cc(C)nc3nn12	6	7	23058*	1.5	-4	-84	3
Cc1ccc(P(=S)(c2ccc(C)o2)N2CCOCC2)o1	·	·	3023	·	·	-12	3
NC(=O)NN=C(C1CC1)C1CC1	6	2	3354	0.9	-1	-18	·
COCCNC(=O)C(c1ccc(F)cc1)N(C(=O)CCC(=O)Nc1ccccn1)c1ccc(C)cc1 (stereo not drawn)	5	4	3688	4.7	13	-10	6
Cc1ccc(-c2c[n+](CC(=O)c3cccs3)c3n2CCC3)cc1	13	4	6441	2.6	1	-9	12
CC(C)Cc1nnc(NC(=O)C2CCCC2)s1	-5	6	4528	-2.9	3	5	0
CCN(CC(=O)NCC1CCCO1)S(=O)(=O)c1ccc(Cl)cc1 (stereo not drawn)	0	7	4541	3.5	3	-15	6
COc1ccc(C(C)=NNC(=O)c2cccc(S(=O)(=O)N3CCCC3)c2)cc1	16	7	4128	6.2	6	-7	·
CN=C(Nc1cccnc1)c1cccc(C(F)(F)F)c1	11	7	3952	1.2	12	-14	2
O=C(OCC(=O)N(C1CCCCC1)C1CCCCC1)c1ccccc1O	3	4	4247	-3.5	1	-22	-1
Cc1nc2ccccn2c1C(=O)N/N=C/c1ccc(CNC(=O)C(=O)Nc2ccccc2)o1	·	·	2010	·	·	-21	0
CCCCn1c(=N)n(CC(O)c2ccccc2)c2ccccc21 (stereo not drawn)	-7	6	3915	5.4	7	-4	18
N=c1n(CC(=O)c2ccc([N+](=O)[O-])cc2)c2ccccc2n1Cc1ccccc1	3	6	2259	10	-4	-17	-6
CCc1cc(=O)oc2cc3oc(C)c(C)c3cc12	3	3	19139*	10	2	-18	-5
COCCSc1nnc(NC(=O)CCS(=O)(=O)Cc2ccccc2)s1	13	7	5866	4.5	6	-13	-7
CCC1(c2ccc(F)cc2)NC(=O)N(CC(=O)Nc2ccc3c(c2)OCCO3)C1=O (stereo not drawn)	6	9	3962	-0.2	-1	-2	·
CCOc1ccccc1C(=O)NCCCCNC(=O)c1ccccc1OCC	19	13	6035	3.9	10	-15	-13
COc1ccc(C(CNS(=O)(=O)c2cccc(F)c2)N2CCCC2)cc1 (stereo not drawn)	14	11	5257	2.6	-2	-14	·
C=CCn1c(=O)c(C(=O)Nc2ccccc2C)c(O)c2ccccc21	8	0	2990	17	25	-59	-3
Cc1ccc(CNC(=O)CSc2nc(=O)n3ccccc3n2)cc1	-4	9	5386	3.5	4	-30	6
Clc1ccc(CON/C=N/c2ncnc3sccc23)c(Cl)c1	·	·	2853	·	·	-15	-2
O=C(Nc1ccc(Cl)c(Cl)c1)N(CCCN1CCOCC1)Cc1cccnc1	17	5	4125	2.9	-2	-23	-5
Cc1ccc(Cl)cc1NC(=O)Nn1cnnc1	-5	-9	5920	-0.1	2	-11	-3
COC(=O)c1nc[nH]c1[N+](=O)[O-]	9	8	3764	4.0	7	-15	·
O=C(CSc1ncccn1)N1CCN(Cc2ccccc2)CC1	0	10	5994	3.6	0	-32	-1
CSCCC(C(=O)NCCCCCCCCCCC(=O)N1CCNCC1)n1cc(CCO)nn1 (stereo not drawn)	14	1	·	4.9	-2	·	·
O=C(CN1CCN(Cc2ccccc2)CC1)NC(=O)NCc1ccco1	·	·	2506	-2.3	7	-14	17
CN1CCN(C=NC2=NN(c3cccc(C(F)(F)F)c3)CC2)CC1	-11	-5	2061	1.1	0	-25	5
O=C(O)C1CCN(C(=O)CSc2nc3ccccc3c(=O)n2-c2ccc(Cl)cc2)CC1	·	·	3109	·	·	4	-12
CC(C)(C)N1C(=O)C2C(c3ccc(Br)cc3)N3C(=O)N(c4cccc(Br)c4)C(=O)[C@@]3(Cc3ccccc3)C2C1=O (stereo partly drawn)	3	-1	·	10	9	·	·
FC(F)(F)c1ccc(CSc2nccn2-c2ccccc2)cc1	·	·	3527	4.2	9	-21	2
COC(=O)c1ccccc1NC(=O)CSc1nnc(C(CO)NC(=O)c2ccccc2Cl)n1C (stereo not drawn)	0	0	15209	1.7	3	-3	-5
S=C(NCCc1ccccc1)N1CCn2cccc2C1c1ccncc1 (stereo not drawn)	·	·	4424	·	·	-17	6
CC(Oc1ccc(Cl)cc1)C(=O)Nc1ccccc1C(=O)N1CCOCC1 (stereo not drawn)	0	4	4407	-0.8	4	-9	0
COc1cccc(NC(=O)CN(C)C(=O)c2cc(S(=O)(=O)NCc3ccccc3)ccc2C)c1	3	11	6801	-0.4	4	-4	0
COc1ccc(OCc2nc3ccccc3n2C(C)C)cc1	8	14	2063	-2.0	0	10	2
COC(=O)c1c(NC(=O)CN2CCN(Cc3ccc4c(c3)OCO4)CC2)sc(C)c1C	8	13	?	-2.8	-22	5	-2
CC(=O)C(=Nc1cccc(Cl)c1)NNc1ccccc1C	-5	-7	6041	-6.3	24	-44	-4
COCCNC(=O)CN(c1cc(Cl)ccc1OC)S(=O)(=O)c1ccc(C)c([N+](=O)[O-])c1	7	7	3307	1.9	5	-21	11
Cc1cc(NC(=O)C(C)C)ncc1NC(=O)Cc1ccccc1	14	4	3761	-3.7	0	-19	-1
(list continues)
SMILES	Mtb hypoxia rep	Mtb hypoxia rep growth	Autofluor counter	RN4220 kill	Sa ugtP lethal	PrP 5UTR inh	BJeLR lethal
CS(=O)(=O)NCc1ccc(C(=O)NCc2ccccc2)cc1	3	1	6062	1.7	5	-6	-12
N#C/C(=N/Nc1ccccc1F)C(=N)N1CCOCC1	·	·	6545	·	·	-27	-4
COc1ccc(CCNC(=O)Cn2nnc(-c3ccc(N(C)C)cc3)n2)cc1OC	0	5	2530	2.9	-6	-5	0
COC(=O)c1nn(-c2cccc(C(F)(F)F)c2)ccc1=O	4	-1	3577	2.7	4	-55	-2
COc1ccccc1CC(=O)N1CCCC1	-3	0	3066	1.6	-2	-31	-2
CCOC(=O)c1c(NC(=O)COc2ncnc3ccccc23)sc(C(C)=O)c1C	0	6	2069	2.9	-5	-10	-12
COC(=O)CN1CCN(C(=O)c2ccc(F)cc2)c2ccccc2C1	·	·	3989	0.8	5	-11	2
O=C(NC(=O)N1CCCCC1)c1ccc(Cl)cc1	11	11	6013	5.1	8	-16	-8
Cn1ccnc1C(O)c1ccco1 (stereo not drawn)	2	-3	10445	3.8	11	-37	-5
Clc1ccc(Nc2nc(N3CCOCC3)nc(N3CCOCC3)n2)cc1Cl	8	10	5675	-4.3	-19	-20	-3
COc1ccc(C2c3[nH]c4ccccc4c3C[C@H]3C(=O)N(CCCO)CC(=O)N23)c(OC)c1 (stereo partly drawn)	-7	-3	3721	1.9	3	·	13
CCOC(=O)CC(=O)CSc1ncc(C(=O)OCC)c(N)n1	·	·	6848	0.6	1	-8	0
O=C(COc1ccc(Cl)cc1)NNC(=O)c1ccc(=O)[nH]c1	-4	5	4013	3.7	1	-13	·
O=C(Nc1ccccc1Br)c1ccc2nccnc2c1	-1	2	3521	1.9	-1	-63	0
Cc1ccc2nc(SC(C)C(=O)N3CCCCC3)[nH]c2c1 (stereo not drawn)	6	3	3255	1.4	3	66*	0
Cc1nn(C)c(C)c1S(=O)(=O)N(CC(=O)NCCCN1CC(C)CC(C)C1)c1ccc(C(C)C)cc1 (stereo not drawn)	-3	-6	4408	-3.3	-2	-15	10
Brc1ccc2[nH]c3c(c2c1)CCC3	6	11	4333	-0.3	11	-24	-5
CC(OC(=O)Cc1ccc(Cl)cc1)C(=O)NC1CCCCC1C (stereo not drawn)	6	2	4442	2.2	7	-9	·
CN(C)c1ccc(S(=O)(=O)N(C)C)cc1NC(=O)Cc1cccc2ccccc12	-6	3	4365	2.3	1	0	-9
COc1ccc(-c2nnn(CC(=O)N(CC3CCCO3)C(C(=O)NC(C)(C)C)c3ccco3)n2)cc1OC (stereo not drawn)	5	5	4405	2.7	9	-17	-8
Cc1cc(/C=C/C(=O)O)c(C)n1-c1ccc(Cl)cc1	·	·	4349	·	·	-33	0
CCC(CO)N=CC1=C(O)C(C(=O)c2ccccc2)CCC1=O (stereo not drawn)	·	·	4522	0.4	-3	-7	·
C(=N\n1cnnc1)/c1cccn1-c1ccccc1	·	·	16775*	·	·	-9	2
Cc1[nH]c2ccccc2c1C(=O)C(C)OC(=O)C1CCC1 (stereo not drawn)	-4	-5	4313	5.3	6	-23	3
Oc1ccc2ccccc2c1C=Nc1ccccc1Br	11	5	4654	1.8	2	-1	-4
O=c1ccnc(Nc2ccc(Cl)cc2)[nH]1	6	4	4137	6.9	0	-3	-2
